RGS16-Gao HTS: regulators of human RGS16-Galphao interaction. bead-based flow cytometry RGS16-Galphao binding, fluorescence; actives lie on both sides. binding response (% of control), % at 10 µM. O15492+P09471. 220,000 tested, 0.38% active;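 active = below 25% or above 175%, edge rows of some plates excepted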;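 note: Galphao activated by GDP with aluminum fluoride before binding; 100% = wells without compound and 0% = beads without RGS; some results beyond the cut were filed as inactive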
Target sequence (O15492 whole entry, looked up): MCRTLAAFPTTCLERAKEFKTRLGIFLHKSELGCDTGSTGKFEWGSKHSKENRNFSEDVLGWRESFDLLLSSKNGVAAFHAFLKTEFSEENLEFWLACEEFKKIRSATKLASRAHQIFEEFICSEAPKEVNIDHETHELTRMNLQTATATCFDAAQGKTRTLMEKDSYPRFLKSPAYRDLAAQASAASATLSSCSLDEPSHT
Target sequence (P09471 whole entry, looked up): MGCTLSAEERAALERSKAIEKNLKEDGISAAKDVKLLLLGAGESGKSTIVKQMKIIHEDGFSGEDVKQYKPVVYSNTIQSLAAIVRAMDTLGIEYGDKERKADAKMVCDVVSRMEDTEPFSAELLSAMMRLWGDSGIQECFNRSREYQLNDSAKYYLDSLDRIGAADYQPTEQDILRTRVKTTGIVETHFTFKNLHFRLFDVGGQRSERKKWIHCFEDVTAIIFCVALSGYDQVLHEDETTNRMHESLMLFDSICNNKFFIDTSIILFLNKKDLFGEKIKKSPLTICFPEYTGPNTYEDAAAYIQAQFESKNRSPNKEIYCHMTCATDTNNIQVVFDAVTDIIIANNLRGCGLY
GALR2 agonist: GALR2 (human) receptor agonism | O43603 | GALR2-expressing cells, agonist activation read-out | activation, %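 (tested at 5 µM)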 | 140,000 tested, 0.48% active;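 active = above mean plus 3 SD of all compounds, about 5% in these data, not always enough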;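 note: 0% = vehicle buffer wells and 100% = reference agonist at full effect; tested in CHO reporter cells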
Target sequence (O43603 whole entry, looked up): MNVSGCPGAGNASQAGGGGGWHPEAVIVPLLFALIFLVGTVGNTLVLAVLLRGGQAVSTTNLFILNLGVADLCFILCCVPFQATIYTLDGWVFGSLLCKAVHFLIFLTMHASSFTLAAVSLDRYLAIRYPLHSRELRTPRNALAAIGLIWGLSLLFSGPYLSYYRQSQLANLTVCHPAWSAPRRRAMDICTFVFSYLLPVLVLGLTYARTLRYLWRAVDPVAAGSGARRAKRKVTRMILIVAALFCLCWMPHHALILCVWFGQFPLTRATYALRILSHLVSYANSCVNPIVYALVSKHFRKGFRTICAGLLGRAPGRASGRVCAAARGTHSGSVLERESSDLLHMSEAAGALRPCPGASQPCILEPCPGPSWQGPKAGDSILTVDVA
PKD1 inh: blocks activity of human protein kinase D1; inhibition, %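 (about 10 µM by stock and volumes)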; AID 797; PKD1 kinase fluorescence polarization assay; 200,000 tested, 0.056% active;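 active = inhibition of 50% or more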;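 note: controls were vehicle for no effect and a reference inhibitor for full effect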
HSV augment: HSV replication enhancement; 220,000 tested, 0.005% active; maximum fold increase; HSV replication augmentation in cells, fold increase; AID 1956;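 active = peak rise of 1.5-fold or more in the series; tested in PC3 cells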;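 note: first round at 10 µM; read as green reporter fluorescence; hits show the peak of a series up to 25 µM; 1 = signal of infected wells without compound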
Insulin prom inh: TRM-6 insulin promoter activity inhibition. TRM-6 cells (human fetal islet line), insulin promoter-eGFP reporter, imaging; reporter expression induced with tamoxifen. inhibition, % at 2 µM. 130,000 tested, 0.9% active. AID 1273;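 active = inhibition above the mean plus 3 SD, with well images judged a real hit on visual review, cut at about 60% in these data, passing the limit was not always enough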
Insulin prom inh cell count: second read-out of Insulin prom inh, no call of its own (marks repeat the call); normalized cell count, %; measured here: cell count, toxicity; reference of the scale not given here;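 cells exposed to compound for 48 h; stained nuclei by imaging scaled within each plate; lower means fewer cells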
HSV augment primary fold: also measured in HSV augment; calls as there; fold increase; compound at 10 µM; measured here: primary screen fold increase 10 uM; tested in PC3 cells;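 GFP signal in the first replicate; 1 = infected wells without compound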
Numbers without * were called inactive; i = inactive; . = no result given. Compounds as they come; 1.2% or so of the library scored in one or more.

Letter code: A = RGS16-Gao HTS; B = GALR2 agonist; C = PKD1 inh; D = HSV augment; E = HSV augment primary fold; F = Insulin prom inh; G = Insulin prom inh cell count
> O=C(CN1C(=O)c2cccc3cccc1c23)Nc1ccccc1C(=O)NCc1ccco1
  A = 86.0; B = -2.7; C = 6.4; D = i; E = 1; F = -13.6; G = 96.7
> O=C(CCC(=O)NCCO)NCCO
  A = 101.5; B = .; C = 7.4; D = i; E = 1.06; F = -14.3; G = 81.8
> CCn1c(O)c(/C=N/NC(=O)c2ccncc2)c(=O)n(CC)c1=S
  A = 99.6; B = -1.5; C = -4.4; D = i; E = 1.06; F = -5.9; G = 124.6
> COc1ccc(CN(CC(=O)NCc2ccco2)C(=O)CCC(=O)Nc2ccccn2)cc1
  A = 99.2; B = 0.5; C = -2.9; D = i; E = 1.03; F = .; G = .
> O=C1CN2C(=Nc3ccc(Br)cc3C2c2ccccc2)CCN1 (stereo unspecified)
  A = 111.7; B = 0.2; C = -7.7; D = i; E = 0.93; F = -10.0; G = 87.5
> Cc1ccc(OCc2nnnn2-c2ccccc2)cc1
  A = 132.0; B = -1.8; C = 8.4; D = i; E = 0.99; F = 29.4; G = 38.6
> CC(C)NC(=O)Cn1c(SCC(=O)N2c3ccccc3CC2C)nc2ccccc21 (stereo unspecified)
  A = 102.5; B = -0.8; C = 1.5; D = i; E = 0.88; F = .; G = .
> CC(C)COc1nc2c(c(=O)n(C)c(=O)n2C)n1C
  A = 94.2; B = .; C = .; D = i; E = 0.95; F = .; G = .
> N#CCC(CNc1ncc(C(F)(F)F)cc1Cl)OC(=O)c1ccc(Cl)cc1Cl (stereo unspecified)
  A = 133.2; B = -2.8; C = 1.6; D = i; E = 0.71; F = -18.8; G = 102.4
> Fc1ccc(NC(=S)NCCc2ccccc2)c(F)c1F
  A = 102.2; B = -2.6; C = 4.8; D = i; E = 0.89; F = .; G = .
> COc1ccc(/C=N/NC(=O)C(=O)/C=C2\NC3(CCCC3)Cc3ccccc32)cc1
  A = 103.3; B = -0.8; C = 4.8; D = i; E = 1.01; F = 11.8; G = 147.5
> CCN1C(=O)NC(c2cc(Br)ccc2OC)C(C(=O)OC)=C1C (stereo unspecified)
  A = 100.7; B = -2.4; C = -0.3; D = i; E = 1.03; F = 28.6; G = 140.2
> CCOC(=O)C1CCCN(c2oc(-c3ccc(F)cc3)nc2C#N)C1 (stereo unspecified)
  A = 105.3; B = .; C = -0.2; D = i; E = 1; F = 25.0; G = 114.0
> O=C(Nc1ccc2c(c1)OCCO2)c1ccccn1
  A = 102.6; B = .; C = 2.1; D = i; E = 0.98; F = 40.5; G = 143.4
> Cc1ccc(S(=O)(=O)N(C)C)cc1NC(=O)/C=C/c1cccs1
  A = 90.6; B = -1.2; C = 2.8; D = i; E = 0.93; F = 33.3; G = 115.5
> Fc1ccccc1COc1ccc(/C=N/n2cnnc2)cc1
  A = 76.5; B = -1.2; C = -3.9; D = i; E = 1.03; F = .; G = .
> COC(=O)c1ccc(-n2cnc3ccccc32)nc1
  A = 101.3; B = .; C = -1.6; D = i; E = 0.81; F = 12.8; G = 183.7
> C#Cc1ccc(C(=O)NCc2ccc(N3CCCC3=O)cc2)cc1
  A = 96.3; B = .; C = -2.1; D = i; E = 0.9; F = -46.1; G = 89.4
> COc1ccc(C2c3cc(OC)c(OC)cc3CCN2C2CC(=O)N(c3ccccc3)C2=O)cc1OC (stereo unspecified)
  A = 104.1; B = -1.1; C = 0.8; D = i; E = 0.69; F = -9.7; G = 169.2
> O=C(Nc1ccc(F)cc1)Nc1ccc([N+](=O)[O-])cn1
  A = 86.9; B = .; C = 2.2; D = i; E = 0.93; F = 20.0; G = 70.6
> CCCCCCCC(=O)NN1CCOCC1
  A = 102.5; B = -3.6; C = -0.3; D = i; E = 1.05; F = -29.7; G = 118.5
> C=CCn1c(C)cc(C2=NNC(=Nc3ccc(C)cc3)SC2)c1C
  A = 99.1; B = .; C = -11.9; D = i; E = 0.98; F = .; G = .
> O=C(NCCCN1CCOCC1)c1cccnc1SCc1ccccc1Cl
  A = 104.4; B = .; C = -6.4; D = i; E = 0.86; F = -14.3; G = 106.5
> OCCC1CN(Cc2cccc3nccnc23)CCN1Cc1ccc(F)cc1 (stereo unspecified)
  A = 100.4; B = .; C = .; D = i; E = 1.05; F = .; G = .
> CC(C)CCNC(=O)C1CCN(S(=O)(=O)c2ccc3c(c2)CCC(=O)N3)CC1
  A = 109.6; B = -1.9; C = -0.4; D = i; E = 0.87; F = .; G = .

Shown with bars between the fields: three of the compounds above.
SMILES | RGS16-Gao HTS | GALR2 agonist | PKD1 inh | HSV augment | HSV augment primary fold | Insulin prom inh | Insulin prom inh cell count
COC(=O)c1ccc(-n2cnc3ccccc32)nc1 | 101.3 | . | -1.6 | i | 0.81 | 12.8 | 183.7
C=CCn1c(C)cc(C2=NNC(=Nc3ccc(C)cc3)SC2)c1C | 99.1 | . | -11.9 | i | 0.98 | . | .
C#Cc1ccc(C(=O)NCc2ccc(N3CCCC3=O)cc2)cc1 | 96.3 | . | -2.1 | i | 0.9 | -46.1 | 89.4

Further records.
Letter code: A = RGS16-Gao HTS; B = GALR2 agonist; C = PKD1 inh; D = HSV augment; E = HSV augment primary fold; F = Insulin prom inh; G = Insulin prom inh cell count
> O=C(/C=C/c1ccc2c(c1)OCO2)Nc1nc2ccc(F)cc2s1
  A = 99.0; B = .; C = .; D = i; E = 0.87; F = .; G = .
> CCOc1cc(S(=O)(=O)N2CCC(Cc3ccccc3)CC2)c(OCC)cc1-n1cnnn1
  A = 100.2; B = -1.0; C = 8.1; D = i; E = 1.24; F = -54.8; G = 101.7
> Cc1ccc(S(=O)(=O)N2CCOC2CNC(=O)C(=O)NCCc2c[nH]c3ccccc23)cc1 (stereo unspecified)
  A = 103.8; B = .; C = 3.2; D = i; E = 0.9; F = .; G = .
> CS(=O)(=O)Nc1ccc(C(=O)NCc2cccnc2)cc1
  A = 99.7; B = -1.0; C = -0.6; D = i; E = 1.08; F = -478.6; G = 68.2
> CN(C)[C@@H]1C(=O)C(C(N)=O)=C(O)[C@@]2(O)C(=O)C3=C(O)c4c(O)ccc(Cl)c4[C@@H](O)[C@H]3C[C@@H]12
  A = 51.0; B = -1.7; C = 25.2; D = i; E = 0.92; F = -52.4; G = 69.0
> Cc1ccc(Nc2c(-c3ccccn3)nc3ccc(C)cn23)cc1
  A = 103.3; B = .; C = -1.0; D = i; E = 0.73; F = .; G = .
> CC(O)c1nc2ccccc2n1Cc1ccc([N+](=O)[O-])cc1 (stereo unspecified)
  A = 101.3; B = -0.7; C = -2.3; D = i; E = 1; F = 2.9; G = 148.7
> COc1cccc(C2/C(=C(/O)c3ccccc3)C(=O)C(=O)N2CCCC(=O)O)c1 (stereo unspecified)
  A = 100.5; B = -0.7; C = -2.4; D = i; E = 0.96; F = .; G = .
> O=C(NCC1CCCO1)/C(=C/c1ccccc1)NC(=O)c1ccccc1 (stereo unspecified)
  A = 99.2; B = .; C = -2.1; D = i; E = 0.9; F = 16.7; G = 103.1
> COc1ccc2c(CC#N)c[nH]c2c1
  A = 96.4; B = -0.6; C = -0.2; D = .; E = .; F = .; G = .
> O=C(/N=C1/c2ccccc2CN1c1ccccc1)Nc1ccccc1
  A = 101.8; B = -1.3; C = -2.2; D = i; E = 1.23; F = .; G = .
> O=C(CN1CCN(c2nc(-c3ccccc3)cs2)CC1)NNC(=O)c1ccco1
  A = 100.0; B = .; C = 0.2; D = i; E = 0.94; F = .; G = .
> CCCOc1ccc(N2C(=O)CC(SCc3nc4ccccc4[nH]3)C2=O)cc1 (stereo unspecified)
  A = 116.3; B = .; C = 1.9; D = i; E = 1.03; F = .; G = .
> Fc1ccccc1NC(=S)N1CCC(c2ccccc2)C1 (stereo unspecified)
  A = 103.4; B = .; C = 8.1; D = i; E = 0.93; F = .; G = .
> COc1cc2c(cc1NC(=O)Nc1ccccc1)oc1ccccc12
  A = 101.7; B = -3.4; C = 12.8; D = i; E = 0.95; F = 6.9; G = 70.4
> COc1cc(CN(C2CCCCC2C)S(=O)(=O)c2ccc(S(=O)(=O)NC3CC3)cc2)cc(OC)c1OC (stereo unspecified)
  A = 75.0; B = 0.3; C = -5.7; D = i; E = 0.95; F = 24.0; G = 101.9
> Cc1occc1-c1nnc(SCc2cc(=O)n3cc(Br)ccc3n2)n1C
  A = 94.0; B = -0.4; C = -11.4; D = .; E = .; F = -45.5; G = 48.9
> COc1ccc(OCCC(=O)NC2CCCCC2)cc1
  A = 101.0; B = .; C = -6.4; D = i; E = 1.06; F = 5.9; G = 119.4
> Cc1ccc(C(=O)N2CC(C)SC2=Nc2cccc(S(=O)(=O)N(C)C)c2)cc1 (stereo unspecified)
  A = 99.9; B = 0.1; C = -1.8; D = i; E = 1.08; F = .; G = .
> NC1=NC(=Nc2cccc(S(N)(=O)=O)c2)c2ccccc21
  A = 100.1; B = .; C = .; D = i; E = 0.99; F = .; G = .
> CCOc1ccc(S(=O)(=O)N2CCCC2)cc1
  A = 107.0; B = -1.6; C = -0.2; D = i; E = 1.1; F = 9.9; G = 73.7
> Cc1[nH]nc(-c2ccc(O)c(C)c2O)c1-c1cnn(-c2ccccc2)c1
  A = 96.2; B = -0.8; C = 13.9; D = i; E = 1.07; F = -154.6; G = 112.8
> Cc1ccccc1Cn1nnc(-c2ccc(C(=O)O)cc2)n1
  A = 103.2; B = .; C = -3.5; D = i; E = 0.96; F = .; G = .
> Cc1ccc(-c2nsc(SCC(=O)NCc3ccc4c(c3)OCO4)n2)cc1
  A = 91.8; B = -0.8; C = -6.1; D = i; E = 1.03; F = .; G = .
> O=C(O)c1ccc(COc2ccc3c4c(c(=O)oc3c2)CCC4)o1
  A = 96.3; B = -1.1; C = -4.0; D = i; E = 1; F = 0.0; G = 111.0

One compound at a time (already shown). Order of values: RGS16-Gao HTS, GALR2 agonist, PKD1 inh, HSV augment, HSV augment primary fold, Insulin prom inh, Insulin prom inh cell count
Cc1ccc(S(=O)(=O)N2CCOC2CNC(=O)C(=O)NCCc2c[nH]c3ccccc23)cc1 (stereo unspecified) reads 103.8, ., 3.2, i, 0.9, ., .
CCOc1ccc(S(=O)(=O)N2CCCC2)cc1 reads 107.0, -1.6, -0.2, i, 1.1, 9.9, 73.7
COc1cccc(C2/C(=C(/O)c3ccccc3)C(=O)C(=O)N2CCCC(=O)O)c1 (stereo unspecified) reads 100.5, -0.7, -2.4, i, 0.96, ., .
O=C(O)c1ccc(COc2ccc3c4c(c(=O)oc3c2)CCC4)o1 reads 96.3, -1.1, -4.0, i, 1, 0.0, 111.0

Next section
Letter code: A = RGS16-Gao HTS; B = GALR2 agonist; C = PKD1 inh; D = HSV augment; E = HSV augment primary fold; F = Insulin prom inh; G = Insulin prom inh cell count
> CC(/C=C/c1ccccc1F)=N\NC(=O)C(C)C
  A = 105.2; B = -2.7; C = 0.7; D = i; E = 0.91; F = 56.2; G = 117.0
> COc1ccc(NC(=O)CSc2nc3c(c(=O)n2-c2ccccc2)SCC3)c(OC)c1
  A = 98.1; B = 1.2; C = -11.7; D = .; E = .; F = -19.2; G = 104.7
> CSC1=NC(C(Cl)(Cl)Cl)N=C(c2ccccc2)N1 (stereo unspecified)
  A = 100.8; B = .; C = 0.6; D = i; E = 0.83; F = .; G = .
> COc1ccc(S(=O)(=O)NCc2cn3c(C)csc3n2)cc1F
  A = 81.5; B = -3.2; C = -0.7; D = i; E = 1.08; F = .; G = .
> CCOCCCNC(=O)c1ccc2c(c1)ncn2C1CCCC1
  A = 106.6; B = -0.2; C = -6.1; D = i; E = 0.92; F = 65.3; G = 23.8
> Cc1cccc(C2CC(c3ccc(Cl)cc3)Nc3nc(N)nn32)c1 (stereo unspecified)
  A = 106.5; B = -0.9; C = -1.2; D = i; E = 0.91; F = .; G = .
> Cn1cc(CCC(=O)N2CCCC(CCC(=O)NCc3ccccc3F)C2)cn1 (stereo unspecified)
  A = 104.7; B = .; C = 3.7; D = i; E = 0.97; F = .; G = .
> NS(=O)(=O)c1ccc(CCNC(=O)COC(=O)CCc2ccccc2)cc1
  A = 106.4; B = .; C = -2.8; D = i; E = 0.99; F = .; G = .
> COC(=O)C1C(c2ccc(OC)c(OC)c2)NC(c2ccc(OC)c(OC)c2)C(C(=O)OC)S1(=O)=O (stereo unspecified)
  A = 110.0; B = -2.5; C = -4.7; D = i; E = 0.99; F = 19.1; G = 104.3
> Cc1cc(C)cc(OCC(=O)N2Cc3ccccc3CC2C(=O)O)c1 (stereo unspecified)
  A = 95.9; B = .; C = 1.5; D = i; E = 0.89; F = .; G = .
> O=c1c(Cl)c(NCc2ccccc2)cnn1C12CC3CC(CC(C3)C1)C2
  A = 109.2; B = 0.1; C = -5.3; D = i; E = 0.84; F = -40.7; G = 105.0
> N#Cc1nnn(Cc2ccccc2)c1N
  A = 105.3; B = .; C = -2.9; D = i; E = 0.95; F = 28.6; G = 126.7
> CCNc1oc(-c2cccc3ccccc23)nc1C#N
  A = 102.8; B = 1.6; C = -2.6; D = i; E = 1; F = -35.9; G = 183.3
